Assay outcomes as filed in PubChem BioAssay.
H5N1 antiviral – MDCK cell protection from H5N1 avian flu. hit rate 0.07% among 96,000. inhibition, % at 50 µM. cytopathic effect, luminescence, 72 h; active compounds read high; no value below 0 was filed and about half of the inactive calls have no number; reference of the scale not given here; in the data active means inhibition above about 25%
* = called active by the depositor; i = inactive. The list is partial; count on the stated rates, not on these rows.

entry	molecule	H5N1 antiviral
1	C=CCOC(=O)C(C#N)c1nc2ccccc2nc1N1CCN(Cc2ccccc2)CC1 (stereo unspecified)	i
2	CCOC(=O)c1sc2c(c1C)c(=O)c(C(=O)OCC)cn2CC	i
3	CC1=C(C(=O)N2CCCCCC2)C2(CCC(C)CC2)OC1=O (stereo unspecified)	1.5
4	COc1cc2c(cc1OC)C(C)N(C(=O)c1cc3n(n1)C(C(F)(F)F)CC(c1ccco1)N3)CC2 (stereo unspecified)	i
5	Cc1ccccc1N1C(=O)C2ON(c3ccccc3)C(c3ccncc3)C2C1=O (stereo unspecified)	i
6	CCOc1ccc2c(c1)nc(SCC(=O)c1ccc(Br)s1)n2C	i
7	CCN(CC)CCCNc1nc2cc(OC)c(OC)cc2c2nc(-c3ccccc3)nn12	i
8	NC(=O)COc1ccc(NC(=O)OCc2ccccc2)cc1	2.3
9	CCn1c(C)nc2cc(C(=O)NNS(=O)(=O)c3ccccc3F)ccc21	0.0
10	COc1ccc2nc(SCC(=O)Nc3cc(C)on3)[nH]c2c1	0.5
11	Cn1c(CSc2ncccn2)nnc1SCC(=O)N1CCCc2ccccc21	0.4
12	Cc1[nH]nc2c1C1(CCN(C(=O)OCc3ccccc3)CC1)C(C#N)=C(N)O2	i
13	CNc1cc(CSC)nc(SCc2ccc(Cl)cc2Cl)n1	4.1
14	CCN(CC)c1ccc(C(=O)OCC(=O)c2ccco2)cc1	i
15	Cc1cc(C)cc(N=C(NO)c2cccc([N+](=O)[O-])c2)c1	0.8
16	O=C1/C(=C/c2ccc(F)c(F)c2)CSc2sccc21	i
17	Cc1cc(NS(=O)(=O)c2ccc(NC(=O)C(c3ccccc3)c3ccccc3)cc2)no1	i
18	O=C(Nc1nnc(C23CC4CC(CC(C4)C2)C3)s1)c1ccc(N2C(=O)CCC2=O)cc1	i
19	CCOc1cc2c3c(c1)C(C)CC(C)(C)N3C(=O)C2=O (stereo unspecified)	i
20	Cc1noc(C)c1S(=O)(=O)N1CCC(C(=O)N2CCN(c3ccccc3Cl)CC2)CC1	i
21	COc1cccc(CNc2nc3nc4c(c(=O)n3[nH]2)CCC4)c1	i
22	O=S(=O)(c1ccc(F)cc1)N1CCC(O)(c2ccc3c(c2)OCO3)CC1	i
23	COCc1cc(=O)[nH]c2cc(NC(=O)C(C)(C)CCl)c(C)cc12	1.3
24	COc1ccc2c(CC(=O)OCC(=O)NC(=O)c3cccn3C)coc2c1	i
25	Cc1cc(C(=O)COC(=O)CN(C)S(=O)(=O)c2ccc(Cl)cc2)c(C)n1CC1CCCO1 (stereo unspecified)	1.6
26	Cc1cc(=O)oc2c(C)c(OCC(=O)N(C)C)ccc12	i
27	CCCCOC(=O)C(NC(=O)c1ccccc1)=C(C)C	i
28	CCN1CCc2c(sc3c2c(NCc2ccco2)nc2nnnn23)C1	1.1
29	Cc1ccc2nc(-c3ccc(S(=O)(=O)N4CCOCC4)cc3)cn2c1	0.7
30	Cc1ccc(C(=O)NCCCN2CCOCC2)cc1N1CCCC1=O	i
31	COc1ccc(S(C)(=O)=O)cc1S(C)(=O)=O	1.2
32	O=C(Nc1cnc2ccccc2c1)c1ccco1	0.1
33	OC(CN1CCN(c2ccccc2)CC1)c1ccc2c(c1)CCN2 (stereo unspecified)	i
34	COc1ccccc1NC(=O)C(=O)NNC(=O)c1ccco1	i
35	Cc1ccc(-c2nnc(N3CCN(S(C)(=O)=O)CC3)c3ccccc23)cc1	0.7
36	CC(C)OCCCNC(=O)c1sc(=S)n(C)c1N	i
37	CC(=O)N1CCC(N(C(=O)Nc2ccc(C)c(C)c2)C2CCCC2)CC1	i
38	CCCCOC(=O)n1c(SCC(=O)N(C)C)nc2ccccc21	i
39	Cn1ncc(Cl)c1C(=O)NC(=S)Nc1sc2c(c1C#N)CCCCC2	i
40	CC1CCc2nc3ccc(S(=O)(=O)N4CCC(C(=O)NC5CCCC5)CC4)cc3c(C(=O)O)c2C1 (stereo unspecified)	i
41	O=C(CCN1C(=O)C2C3C=CC(C3)C2C1=O)NCc1cccnc1 (stereo unspecified)	i
42	C=CCc1cc(C)ccc1OCCn1ccnc1	i
43	C=CCn1c(COc2ccc(F)cc2)nnc1SCC(=O)N1CC(=O)Nc2ccccc21	i
44	CCNC(=O)CSc1ncnc2sccc12	i
45	O=C1COc2ccc(C(=O)NCc3ccco3)cc2N1	6.9
46	COC(=O)[C@H](Cc1ccccc1)NC(=O)N1CCC(C)CC1	0.1
47	CN(C)c1nc(-c2ccccn2)nnc1-c1ccccc1	0.2
48	Cc1cc(NC(=O)CN2CCCC(C)C2)n(-c2nc3ccccc3s2)n1 (stereo unspecified)	0.8
49	CSc1nc(NCCOCCO)c2sc3nc(-c4ccco4)c4c(c3c2n1)CCC4	i
50	COc1ccc(CC(=O)NC(C)c2nnc(SCC(=O)Nc3nc(C)cs3)n2C)cc1 (stereo unspecified)	0.7

A second format for some results above.
#45 O=C1COc2ccc(C(=O)NCc3ccco3)cc2N1
  H5N1 antiviral = 6.9

#26 Cc1cc(=O)oc2c(C)c(OCC(=O)N(C)C)ccc12
  H5N1 antiviral = i

The list goes on:
entry	molecule	H5N1 antiviral
51	CC1CCN(S(=O)(=O)c2ccc3c(c2)C(=NO)c2cc(S(=O)(=O)N4CCC(C)CC4)ccc2-3)CC1	i
52	O=C(c1ccc(COc2c(F)c(F)cc(F)c2F)o1)N1CCN(c2ccc(Cl)cc2)CC1	0.0
53	O=C(CCNS(=O)(=O)c1cccc2nonc12)NC1CCCc2ccccc21 (stereo unspecified)	i
54	CCS(=O)(=O)c1nnnn1-c1ccccc1S(C)(=O)=O	16
55	CCC(Sc1ccc2nnc(-c3ccc(F)cc3)n2n1)C(=O)O (stereo unspecified)	1.9
56	Nn1c(SCC(=O)NCCC2=CCCCC2)nnc1C(F)(F)F	i
57	CCn1c(=S)sc2c(=O)n(-c3ccccc3)c(SCC(=O)NCc3ccco3)nc21	0.5
58	CCOC(=O)c1cnn(-c2nc(-c3ccccc3)cs2)c1C(F)(F)F	i
59	O=C(Cn1c(=O)sc2ccccc21)NCc1ccccn1	0.3
60	Cc1nc2ccccc2c(=O)n1-c1cccnc1	1.0
61	O=C(NCc1ccco1)c1sc(=S)n2c1[nH]c(=O)c1ccccc12	i
62	CCc1nc2oc3cc(OC)ccc3c(=O)c2c(=O)n1-c1ccccc1	i
63	CCOc1ccc(-c2nnc3ccc(SC)nn23)cc1	1.6
64	CC(C)N(Cc1nc(-c2ccc(Cl)cc2)no1)C(=O)CCC1CCCC1	1.0
65	COC(=O)c1ccc(-c2nc(-c3cccs3)no2)cc1	i
66	COc1cc(-c2nc(N)n[nH]2)cc(OC)c1OC	i
67	CCN(CC)C(=O)N1CCC(NC(=O)c2ccccc2)CC1	i
68	Cc1cc(C)cc(N(CC(=O)NCc2ccco2)S(=O)(=O)c2c(C)noc2C)c1	0.8
69	COc1ccc2[nH]c3c(NCCN(C(C)C)C(C)C)ncnc3c2c1	i
70	Cc1oc(-c2ccccc2)nc1Cn1cccc1C1=NC(c2ccccc2)CO1 (stereo unspecified)	1.7
71	COc1ccc(N2CCN(S(=O)(=O)/C=C/c3ccccc3)CC2)cc1	i
72	O=C(Nc1cccc(C(F)(F)F)c1)NC1CCCCC1	i
73	CC(=O)c1cccc(N(CC(=O)NCC2CCCO2)C(=O)CCC(=O)Nc2cc(C)on2)c1 (stereo unspecified)	i
74	COc1ccc(/C=N/NS(=O)(=O)c2ccc(C)cc2)cc1OC(=O)c1ccccc1	0.7
75	CCOC(=O)c1cc2c(nc1N)CC(C)(CC)OC2 (stereo unspecified)	1.0

6 compounds picked at random from the list so far:
entry	molecule	H5N1 antiviral
75	CCOC(=O)c1cc2c(nc1N)CC(C)(CC)OC2 (stereo unspecified)	1.0
70	Cc1oc(-c2ccccc2)nc1Cn1cccc1C1=NC(c2ccccc2)CO1 (stereo unspecified)	1.7
68	Cc1cc(C)cc(N(CC(=O)NCc2ccco2)S(=O)(=O)c2c(C)noc2C)c1	0.8
67	CCN(CC)C(=O)N1CCC(NC(=O)c2ccccc2)CC1	i
59	O=C(Cn1c(=O)sc2ccccc21)NCc1ccccn1	0.3
72	O=C(Nc1cccc(C(F)(F)F)c1)NC1CCCCC1	i

Following part
entry	molecule	H5N1 antiviral
76	Cc1ccc2[nH]c(C(=O)O)c(NC(=O)CN3CCN(c4cccc(C)c4C)CC3)c2c1	i
77	CCc1nccn1S(=O)(=O)c1ccc(Br)cc1Br	0.1
78	COC(=O)CCCNC(=O)CN1CC(c2ccccc2)CC1=O (stereo unspecified)	i
79	C=CCn1c(C#N)c(N)sc1=N	0.1
80	Cc1ccc(S(=O)(=O)n2ccc3cccnc32)cc1	0.5
81	CCC(=O)Nc1sc2c(c1C#N)CC(C)(C)NC2(C)C	2.6
82	CCOCCCn1c(=S)[nH]c2cc3c(cc2c1=O)OCO3	1.2
83	COCCn1c(SCCN2CCCCC2)nc2ccccc2c1=O	1.5
84	Cc1nc2c(-c3ccc(F)cc3)c(C)nn2c(C)c1CCC(=O)N1CCN(c2ccc(F)cc2)CC1	2.0
85	CCc1ccc(N(CC(=O)O)S(=O)(=O)c2c(C)noc2C)cc1	0.5
86	O=C1CCCN1CCCNS(=O)(=O)c1ccc(Cl)c(C(=O)N2CCOCC2)c1	0.0
87	COc1ccc(-c2nnc(SCCC(=O)O)n2-c2ccccc2)cc1	0.9
88	COc1ccc(-c2noc(-c3ccccc3-c3ccccc3)n2)cc1OC	i
89	CCC(c1nnnn1CCOC)N1CCN(C(=O)c2ccco2)CC1 (stereo unspecified)	2.4
90	CCN1CCN(c2nc3c(c(=O)[nH]2)CCCC3)CC1	i
91	COc1ccc(N2CCN(C(=O)CC3NC4CCCCC4NC3=O)CC2)cc1 (stereo unspecified)	0.2
92	O=C(Nc1cccn2ncnc12)c1ccc(Cl)cc1Cl	0.5
93	COC(=O)c1ccccc1NC(=O)CN(Cc1ccc(Cl)cc1)S(C)(=O)=O	2.0
94	Cc1ccc(-n2ncc3c(N4CCCC4)ncnc32)c(C)c1	0.0
95	CCSc1nnc(NC(=O)C(CC)Oc2ccccc2)s1 (stereo unspecified)	i
96	COc1ccc(-n2c(SC3CCOC3=O)nc3ccccc32)cc1 (stereo unspecified)	i
97	COc1ccc(CCNC(=O)CN(C)S(=O)(=O)c2cccc3nsnc23)cc1OC	0.4
98	Cc1ccc(NC(=S)C2=C(O)c3sccc3N(C)S2(=O)=O)cc1	52*
99	COC(=O)C1=C(C)N=C2SCCC(=O)N2C1/C=C/c1ccccc1 (stereo unspecified)	i
100	CC1CCCN(c2ccc(C(=O)NCc3cccs3)cn2)C1 (stereo unspecified)	0.5

Overlap with the part before: 2 compounds, followed by the next part.
entry	molecule	H5N1 antiviral
99	COC(=O)C1=C(C)N=C2SCCC(=O)N2C1/C=C/c1ccccc1 (stereo unspecified)	i
100	CC1CCCN(c2ccc(C(=O)NCc3cccs3)cn2)C1 (stereo unspecified)	0.5
101	CC1(C)CC(=O)C2=C(C1)OC(c1ccncc1)C(C#N)=C2N (stereo unspecified)	i
102	CCN(CC)C(=O)CSc1nnc(CCCCCNC(=O)OC(C)(C)C)o1	i
103	CCOC(=O)c1c(NC(=O)C2COc3ccccc3O2)sc(C(C)=O)c1C (stereo unspecified)	0.2
104	Cc1cc(N)n2ncc(-c3cccc(Br)c3)c2n1	i
105	CC1CCc2sc3ncn4nc(C(=O)NCc5ccco5)nc4c3c2C1 (stereo unspecified)	i
106	CS(=O)(=O)N1CCN(c2cccc(Cl)n2)CC1	1.6
107	COC(=O)CSc1n[nH]c(-c2cccnc2)n1	0.2
108	Cc1cc(S(=O)(=O)N2CCCCCC2)c(Cl)cc1Cl	1.1
109	CN1CCN(S(=O)(=O)c2ccc(NC(=O)c3cccc(S(=O)(=O)N4CCCC4)c3)cc2)CC1	i
110	COc1ccc(N(CC(=O)N2CCCCCC2)S(=O)(=O)c2c(C)[nH]c(=O)[nH]c2=O)cc1	0.4
111	COC(CNC(=O)c1cccc2c1C(=O)N(Cc1cccnc1)C2)OC	0.7
112	O=C(CCN1C(=O)C2C3C=CC(C3)C2C1=O)NC1CCCc2ccccc21 (stereo unspecified)	i
113	CC(=O)Nc1ccc2c(c1)CCC2=O	0.7
114	COc1cc(NC(=O)c2c(F)cccc2F)nc(OC)n1	1.2
115	C=CCN1C(=O)/C(=C2/Sc3ccccc3N2CCCS(=O)(=O)O)SC1=S	1.7
116	Clc1ccc(OCc2cn3cccnc3n2)c2ncccc12	i
117	O=C(Nc1cccc(C(=O)N2CCOCC2)c1)c1cccnc1	i
118	CCCC(c1nnnn1CCc1ccccc1)N1CCN(C2CCCC2)CC1 (stereo unspecified)	i
119	Cc1ccc(-c2csc(N3N=C(c4ccccc4)/C(=C\c4ccc(N(C)C)cc4)C3=O)n2)cc1	1.0
120	O=S1(=O)CCC(S(=O)(=O)N2CCCCCC2)C1 (stereo unspecified)	i
121	CC(C)(C)n1cnc2cc(NS(=O)(=O)c3ccc(Br)cc3)ccc21	1.0
122	CCn1c(=O)cc(OCC(=O)Nc2cc(C)ccn2)c2ccccc21	i
123	Cc1ccc2c(c1)CCCN2C(=O)C1CCCO1 (stereo unspecified)	i
124	CCOc1ccc(C2CC(c3ccc(F)cc3)Nc3nc(N)nn32)cc1 (stereo unspecified)	0.0
125	Cc1ccc(CNCc2ccccc2Cl)cc1	0.5
126	CCOC(=O)C1CCN(Cc2cccc(OC)c2)CC1	i
127	COc1cccc(CN2C(=O)C3(C(C#N)=C(N)OC4=C3C(=O)CCC4)c3ccccc32)c1 (stereo unspecified)	i
128	CN1C(=O)NC(c2ccc(O)cc2)C(C(=O)c2cccs2)C1(O)C(F)(F)F (stereo unspecified)	i
129	CCN1CCN(C(=O)c2cnn3c(C(F)F)cc(-c4ccc(C)cc4)nc23)CC1	0.8
